# UCH37 inh – blocks the human deubiquitinase UCH37 | Q9Y5K5 | purified proteasome/UCH37, Ub-AMC cleavage fluorescence | inhibition, % (test concentration not listed) | actives 0.33% (n = 330,000) | AID 588478;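 active = mean of two replicates above 20%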;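 also: 0% = compound-free wells with enzyme and 100% = wells lacking proteasome; stock transfer was 100 nL into about 20 µL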
# Target sequence (Q9Y5K5 whole entry, looked up): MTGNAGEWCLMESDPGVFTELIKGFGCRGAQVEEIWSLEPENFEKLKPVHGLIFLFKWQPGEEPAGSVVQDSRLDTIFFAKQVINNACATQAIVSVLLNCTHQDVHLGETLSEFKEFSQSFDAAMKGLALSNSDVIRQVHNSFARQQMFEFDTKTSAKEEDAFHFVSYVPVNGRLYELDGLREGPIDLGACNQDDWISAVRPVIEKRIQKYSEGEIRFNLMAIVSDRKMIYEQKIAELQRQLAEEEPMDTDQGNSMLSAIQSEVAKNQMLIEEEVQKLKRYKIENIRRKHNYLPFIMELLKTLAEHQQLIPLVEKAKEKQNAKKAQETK
#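 assay system = human UCH37 enzyme supplied as purified proteasome complex | amount = proteasome at 0.15 nM in the dispensed enzyme solution | schedule = 30 min compound-proteasome preincubation then 25 min substrate reaction, room temperature | measured by = fluorescence, ex 355 nm, em 460 nm | benchmarks = no-proteasome wells (full inhibition) and compound-free wells (no inhibition)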
# Beta2AR agonist – agonists of human beta-2 adrenergic receptor inducing internalization; P07550; Am2.2-beta2AR cells, FAP receptor internalization, flow cytometry; reference of the scale not given here; response, % (concentration not given with the values); actives 0.43% (n = 340,000); AID 504454;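 active = response above a set limit, near 3 SD of response in nonfluorescent compounds, cut at about 42% in these data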;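 also: stock transfer was 100 nL into about 11 µL; a reference agonist was the positive control; negative values mostly stem from fluorescent compounds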
# E coli growth – inhibitors of Escherichia coli growth. OD600 absorbance (no concentration beside the values). AID 1053175. actives 0.21% (n = 330,000). OD600, 23 h; stronger effect = lower value;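 active = OD600 absorbance below the run mean of sample wells minus 3.6 SD, in any replicate, cut at about 0.56 in these data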;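 also: stock transfer was 300 nL into about 60 µL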
# FGF22 binding – binders of recombinant human FGF22 by thermal shift; Q9HCT0; SYPRO orange fluorescence; percent of sucrose octasulfate shift, DMSO zero; calls only at 9.99 µM; actives 1.5% (n = 340,000);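 active = melting point raised past a set limit in the mean and every replicate; three in four hits are not shown here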
# Target sequence (Q9HCT0 whole entry, looked up): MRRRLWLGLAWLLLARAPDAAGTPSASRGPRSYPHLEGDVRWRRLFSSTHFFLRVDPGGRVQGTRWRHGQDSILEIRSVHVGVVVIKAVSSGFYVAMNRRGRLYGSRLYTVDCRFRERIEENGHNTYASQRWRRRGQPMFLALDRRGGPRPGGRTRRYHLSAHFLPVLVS
# Ecoli rRNA inh – inhibitors of bacterial rRNA selective over humanized ribosomes. GFP signal change (wild-type ribosome), % (concentration not given with the values). AID 720706. actives 1.6% (n = 350,000). E. coli WT GFP vs humanized-ribosome RFP mutants, fluorescence, 24 h; stronger effect = lower value; DMSO median 0, no signal -100;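 active = significant combined selectivity score with lowered wild-type GFP, culture density cut under 30%, mutant RFP and density less affected; inactive = any of these conditions unmet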; also: one replicate is shown; some compounds called inactive have numbers as strong as hits
# HNF4A DNA FP – change in binding of human HNF4 alpha to DNA. HNF4a-FITC DNA binding, fluorescence polarization, 1 h. actives 0.3% (n = 360,000). AID 1224865. activity change, % at 10 µM; in the data active = activity change above about 30%, passing the limit was not always enough;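 also: controls were the assay level and a saturating level of protein; the project sought stronger binding though the title names inhibitors; some compounds called inactive have numbers as strong as hits; positive values seem to mean higher polarization but the record does not say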
# ALR H2O2 inh – inhibitors of human sulfhydryl oxidase ALR. P55789. purified ALR, DTT oxidation, H2O2 HRP-luminol luminescence. inhibition, % (concentration not given with the values). actives 3.8% (n = 290,000);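 active = mean and each replicate at 75% or more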;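 also: stock transfer was 7.5 nL into about 7.5 µL; 0% = neutral wells and 100% = wells with inactivated enzyme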
# Target sequence (P55789 whole entry, looked up): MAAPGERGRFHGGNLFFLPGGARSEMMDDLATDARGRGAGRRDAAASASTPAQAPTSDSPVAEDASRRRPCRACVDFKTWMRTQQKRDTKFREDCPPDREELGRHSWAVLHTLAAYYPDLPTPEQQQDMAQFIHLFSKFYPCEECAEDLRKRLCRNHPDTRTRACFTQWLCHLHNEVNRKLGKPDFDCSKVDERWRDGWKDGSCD
# Ecoli rRNA inh OD600 – further read-out of Ecoli rRNA inh, marked with its call; OD600 change, %; measured here: OD600 growth;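 optical density of the mix in the first replicate; 0 = DMSO median and -100 = no signal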
# Ecoli rRNA inh RFP – also measured in Ecoli rRNA inh; calls as there; RFP signal change, %; measured here: RFP humanized mutant strains;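 first replicate; 0 = DMSO median and -100 = no signal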
# * hit, by the source's call; i = inactive; . = not tested or not shown.
# Every second line gives: Beta2AR agonist, Ecoli rRNA inh, FGF22 binding, Ecoli rRNA inh OD600, ALR H2O2 inh, Ecoli rRNA inh RFP, UCH37 inh, HNF4A DNA FP, E coli growth
- O=c1[nH]c(CSc2ccccc2)nc2c1oc1ccccc12
    9.8, 4.2, ., 3.0, -3.1, -8.6, 3.3, 0.8, 0.662
- CN(CC(=O)Nc1ccc(N2CCOCC2)cc1)CC(=O)Nc1ccc(C(F)(F)F)cc1
    -3.5, -8.5, ., -30.0, ., 8.3, 3.4, 4.3, 0.676
- O=C(NC1CCCCC1)C(c1cccc2ccccc12)n1c(=O)c(-c2ccco2)nc2ccccc21 (stereo unspecified)
    ., -23.2*, i, -6.0*, ., 7.3*, ., 32.9, .
- O=C(Cn1c(=O)oc2ccccc21)Nc1nc(-c2ccccc2)cs1
    10.8, -4.3, i, -1.3, ., -5.1, 4.3, -0.7, 0.693
- COc1ccccc1Nc1nc(NCCO)nc(N)c1[N+](=O)[O-]
    -4.0, -5.6, i, -0.1, -5.3, -4.6, ., 0.8, .
- O=C(c1ccc2c(=O)n(Cc3ccc(Cl)cc3)c(=S)[nH]c2c1)N1CCOCC1
    7.5, -5.4, i, -12.5, 9.0, 1.4, 1.7, 4.2, 0.66
- CCN1CCC(O)(/C=C/c2ccc(C)cc2)C(C(=O)/C=C/c2ccc(C)cc2)C1 (stereo unspecified)
    52.9*, -48.3, i, -79.7, ., -19.1, ., 2.4, .
- CCOC(=O)C1CCN(C(=O)c2cc(S(=O)(=O)N3CCc4ccccc43)ccc2OC)CC1
    7.5, 3.3, i, -6.1, 0.8, 1.9, 2.0, -3.1, 0.691
- Cc1ccc(S(=O)(=O)N2CCN(C(=O)CN3C(=O)NC4(CCOc5ccccc54)C3=O)CC2)cc1 (stereo unspecified)
    -9.2, ., ., ., -7.9, ., 1.8, 0.5, 0.718
- COCc1ccc(-c2c(-c3ccsc3)sc3ccccc23)cc1
    -4.2, -1.9, i, 6.2, -8.1, -16.1, 0.9, -2.4, 0.811
- Cc1cc(C)n(CCN(C)C(=O)CCc2nnc(-c3ccc4c(c3)OCO4)o2)n1
    9.1, 2.3, i, 15.3, -20.6, 2.4, -1.1, 1.2, 0.67
- Cn1c(=O)[nH]c(=O)c2c1nc(Br)n2CC(O)COc1ccc(Cl)cc1 (stereo unspecified)
    2.4, 20.1, i, 19.9, ., 7.3, 0.9, -0.3, 0.696
- O=C(CN1C(=O)C(c2ccccc2)Oc2cccnc21)NCc1ccccc1F (stereo unspecified)
    -5.0, -6.7, i, -19.3, -10.6, -2.2, -0.2, -1.5, 0.682
- CN(CC(=O)Nc1ccc(Cl)cc1)CC(=O)Nc1ccc(C(N)=O)cc1
    -1.1, 1.2, i, 3.6, -10.8, 6.2, 1.7, -2.5, 0.691
- CC(C)c1ccc(CNNC(=O)c2ccccc2)cc1
    4.8, -11.5, i, -12.6, 0.1, -1.2, 2.5, -0.6, 0.683
- CCOC(=O)c1c(C)oc2c1c(C(c1cccnc1)N1CCCCC1)c(O)c1ccccc12 (stereo unspecified)
    20.8, ., ., ., -64.3, ., 0.4, -2.1, 0.804
- C/C(=N\NC(=O)c1ccccc1)c1nc2ccccc2n1C
    -1.6, 7.5, i, 3.2, 0.3, 4.3, ., -1.9, .
- CCCCN(C(C)=O)c1c(CC)nc2ccc(C(=O)NCCCN(C)C)cn12
    ., 8.3, i, 7.3, ., -0.2, ., -1.9, .
- Cc1oc(-c2cccc(Cl)c2)nc1CS(=O)(=O)CC(=O)NCCN1CCCC1
    -7.3, 2.3, i, 20.1, 23.4, 5.9, 2.6, 1.9, 0.794
- Cc1ccc(NC(=O)NC2CCCCC2)cc1S(=O)(=O)N1CCOCC1
    -2.1, -2.4, i, -2.5, 74.4, 0.1, -0.6, -0.2, 0.708
- CCOC(=O)CCCNC(=O)COC(=O)c1cccc(C)c1O
    -0.5, ., ., ., 2.3, ., -0.8, 2.1, 0.713
- Cc1cccc(C)c1NC(=O)CN1CCN(C(=O)CNC(=O)c2ccc(N3CCCC3=O)cc2)CC1
    -6.5, 15.6, i, -4.3, -6.0, 0.9, 0.0, -1.6, 0.694
- O=C1CCC(C(=O)OCC(=O)N2N=C3/C(=C/c4ccccc4)CCCC3C2c2ccccc2)N1 (stereo unspecified)
    20.6, -39.8, ., -64.0, ., 6.7, -5.9, 2.5, 0.707
- CCC1(C)NC(C(=O)O)Cc2c1[nH]c1ccccc21 (stereo unspecified)
    -1.5, 15.2, i, 16.0, -2.4, 1.2, 1.6, 1.9, 0.707
- C#Cc1cccc(C(=O)N2CCCC(CCC(=O)NCc3ccccc3F)C2)c1 (stereo unspecified)
    -1.4, -2.1, i, -10.1, -5.8, 1.9, -1.4, -5.3, 0.679
- COc1ccc(OC(=O)c2cccc([N+](=O)[O-])c2)c(C(=O)/C=C/c2cccs2)c1
    19.7, ., ., ., 4.6, ., 2.7, -0.1, 0.793
- CCC(=O)NC(=S)Nc1ccccc1F
    3.1, ., ., ., 7.2, ., 1.5, -4.7, 0.751
- Cc1ccccc1CSc1nc2ccccc2c(=O)n1C
    -5.8, 8.7, i, 11.2, ., -2.0, 5.6, -3.2, 0.666
- O=C(C1=C[C@@H](C2CC2)C[C@@H](OCc2ccc(CO)cc2)O1)N1CCOCC1
    -8.4, 9.5, i, 0.9, 14.6, -2.9, 0.6, 0.6, .
- COc1ccc(N2CCN(C(=O)CN3CCN(C(c4ccccc4)c4ccccc4)CC3)CC2)cc1
    7.5, ., ., ., -6.8, ., -0.9, 0.9, 0.659
- O=C(Nc1ccc2c(c1)N(Cc1ccccc1)C(=O)c1ccccc1S2)NC1CC1
    3.2, ., ., ., -21.6, ., 4.3, 1.0, 0.737
- O=C(CSc1nncn1-c1ccccc1F)NC1CC1
    -2.9, 4.4, i, 10.5, 0.7, 0.7, 2.4, 0.4, 0.648
- O=C(OCCN1CCOCC1)c1ccccc1Cl
    -0.6, 7.5, i, 5.4, 11.0, 2.4, 2.1, -1.1, 0.694
- CCc1noc(C)c1C(=O)N1CCN(S(=O)(=O)c2ccc(Cl)cc2)CC1
    -16.8, 3.4, i, -2.1, -5.6, -1.1, -1.8, 3.0, 0.711
- O=C(NCCc1ccccc1)c1ccc(-c2ccc(F)cc2)o1
    1.3, -34.4, i, -61.6, ., -5.5, 2.6, -1.0, 0.664
- Cc1ccc(C(=O)N/N=C/c2cccc(OC(=O)/C=C/c3ccco3)c2)cn1
    -2.2, 10.1, i, 8.0, 21.4, 0.8, ., -6.1, .
- CN(C(=O)COC(=O)c1ccc2c(=O)n3c(nc2c1)CCC3)C1CCS(=O)(=O)C1 (stereo unspecified)
    0.9, 2.5, i, -5.8, 19.3, -0.2, -9.1, -3.9, 0.705
- CN1CN(C)c2ccc([N+](=O)[O-])c3cccc1c23
    4.8, -6.9, i, -5.4, 73.8, 5.8, 5.0, 1.2, 0.678
- COc1ccccc1N1CCN(C(=O)C(=O)N/N=C/c2cccc(O)c2)CC1
    12.2, ., ., ., 48.9, ., ., 3.8, .
- CC(C)C(c1nnnn1C(C)(C)C)N1CCOCC1 (stereo unspecified)
    -1.1, ., ., ., 23.7, ., 0.2, 0.1, 0.71
- O=C(NCc1ccco1)c1ccc(CS(=O)Cc2cccc(Cl)c2)o1 (stereo unspecified)
    5.5, -8.4, i, -13.2, -1.0, -3.4, 1.3, 2.0, 0.682
- Cc1ccc(S(=O)(=O)NCCN2CCOCC2)cc1
    8.2, ., ., ., ., ., 1.0, -1.8, 0.676
- O=C(CSc1nccn(-c2ccc3c(c2)OCCO3)c1=O)Nc1ccccc1
    3.4, 1.6, i, -6.9, ., 0.8, 3.4, 2.6, 0.681
- CCOc1ccc(NS(=O)(=O)c2ccc3[nH]c(=O)[nH]c3c2)cc1
    11.3, 6.5, i, 11.8, 1.8, -1.5, 3.3, 1.3, 0.688
- O=C(Cn1ncc2c3ccccc3n(Cc3ccc(F)cc3)c2c1=O)N1CCN(c2ncccn2)CC1
    -11.3, ., ., ., -3.5, ., 0.5, 3.0, 0.751
- O=C(Nc1ccccc1)C1=C[C@H](C2CCCCC2)C[C@H](OCc2ccc(CO)cc2)O1
    -0.4, 3.9, i, -6.2, ., -0.3, 0.0, -0.3, .
- COCCN1C[C@@H](CO)O[C@@H](n2cnc3c(NC(C)C)ncnc32)C1
    ., 8.9, i, 9.7, ., -3.9, ., -3.3, .
- C/C(N)=C(/C#N)C(=O)CSc1cc(C)c2cc(C)cc(C)c2n1
    -3.4, 7.2, i, 4.0, 96.3*, 56.6, 3.2, -3.6, 0.735
- COc1ccc(C(=O)C2CCCN(Cc3ccc4nonc4c3)C2)cc1F (stereo unspecified)
    2.0, -21.4, i, -16.1, -3.5, -12.0, -0.7, -1.9, 0.663
- COc1ccc(-c2noc(CN(C)C(=O)CCCN3C(=O)[C@H]4CC=CC[C@H]4C3=O)n2)cc1
    ., 2.0, i, 6.3, ., 2.2, ., 1.8, .
- O=C(CCc1ccccc1)NCCC1=CCCCC1
    -5.5, 0.7, i, -1.8, 2.2, 2.2, -0.3, -1.6, 0.699
- COc1cccc(C2C3=C(CCCC3=O)Nc3nc(-c4cc(OC)c(OC)c(OC)c4)nn32)c1 (stereo unspecified)
    -12.7, ., ., ., ., ., -2.2, 2.3, 0.744
- Cc1ccc2occ(/C=C/C(=O)O)c(=O)c2c1
    7.2, ., ., ., -2.8, ., -1.5, 0.0, 0.727
- CCCn1c(CCl)nc2cc(S(=O)(=O)N3CCOCC3)ccc21
    -0.6, 15.1, i, 11.5, -0.7, 1.5, -0.2, -2.2, 0.72
- Cc1ccc(NCCC(=O)c2cccs2)cc1C
    5.1, -7.7, ., -1.0, 98.8*, -0.7, -0.8, 4.0, 0.697
- CCCC1CC(C)(C(=O)Cn2[nH]c(=O)ccc2=O)OC1=O (stereo unspecified)
    7.0, 3.9, i, 3.7, 0.3, 0.7, -1.0, 2.7, 0.69
- Cc1ccc(SCC(=O)N2c3ccccc3Sc3ccccc32)cc1
    5.5, ., ., ., -4.2, ., 1.4, -1.8, 0.746
- O=C(CC(C(=O)O)c1cccc(Cl)c1)c1ccccc1 (stereo unspecified)
    1.9, -1.5, i, -5.1, -3.7, -5.2, 5.8, -2.3, 0.692
- CS(=O)(=O)c1ccc(-c2cc(NC=O)c3ncc(-c4ccc(F)cc4)n3c2)cc1
    ., -6.7, i, -0.4, ., 1.4, ., 4.2, .
- Cc1cc(C(=O)N2CCN(C(c3ccccc3)c3ccccc3)CC2)no1
    -19.1, ., ., ., 0.5, ., 4.1, 2.4, 0.686

# The list goes on:
# Every second line gives: Beta2AR agonist, Ecoli rRNA inh, FGF22 binding, Ecoli rRNA inh OD600, ALR H2O2 inh, Ecoli rRNA inh RFP, UCH37 inh, HNF4A DNA FP, E coli growth
- Cn1cccc1C(=O)OCC(=O)N1CCc2ccccc21
    -5.7, 2.7, i, 1.8, -3.8, -2.9, ., 1.4, .
- Cc1ccc(CNC(=O)CN(c2ccc(C)cc2)S(=O)(=O)c2c(C)nn(C)c2C)cc1
    -2.7, 7.5, i, 1.8, -17.3, 0.9, 3.3, 0.4, 0.702
- COC(=O)c1cc(NC(=O)C2(S(=O)(=O)c3ccc(C)cc3)CC2)cc(C(=O)OC)c1
    3.5, ., ., ., -7.4, ., -4.2, 1.7, 0.632
- Oc1cccc2c(-c3nn[nH]n3)ccnc12
    3.9, -4.1, i, 4.4, 19.7, -12.4, 1.4, -4.2, 0.702
- N#Cc1c2ccc(OCC(=O)NCc3ccco3)cc2n2ccccc12
    -5.6, -2.1, i, -11.0, ., 0.2, -12.3, -14.5, 0.706
- CC(/C=N/NC(=O)Cn1cnc2ccccc21)=C\c1ccccc1
    -14.4, -10.2, i, -22.0, -0.9, 31.1, ., 1.4, .
- COc1ccc(OC)c2c1cc(C(=O)N[C@H](C(=O)N1CCC[C@H]1C(=O)O)C(C)C)n2C
    2.9, ., i, ., ., ., 3.0, 0.1, 0.738

# Screens (PubChem)

# Some of the compounds tested, so the mix of outcomes need not match the whole.
